Screening data: PubChem, Broad Institute
NOMO-1 viab = NOMO-1 AML cell viability reduction, primary screen, STK33 inhibitor project, CellTiter-Glo luminescence; NOMO-1 AML viability, 72 h; inhibition, % (test concentration not listed); actives 7.5% (n = 37,000); AID 2330, 2010;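 active = most replicates above 80%; inconclusive = exactly half above 80%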;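 note: wells of about 30 µL received 25 nL stock; 0% = median of vehicle wells and 100% = reference inhibitor level; the first replicate is given; inactives centre near 10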
An asterisk follows results filed as active; ? = inconclusive. Some of the compounds tested, so the mix of outcomes need not match the whole.

structure	NOMO-1 viab
COc1ccc(S(=O)(=O)Nc2cccc3c2O[C@@H](CN(C)C(=O)Nc2cccc4ccccc24)[C@@H](C)CN([C@H](C)CO)C3=O)cc1	11
C[C@@H]1CCCCO[C@@H](CN(C)C)[C@@H](C)CN([C@H](C)CO)C(=O)c2cc(NC(=O)CCC(F)(F)F)ccc2O1	7
Cc1noc(C)c1NC(=O)Nc1ccc2c(c1)C(=O)N([C@H](C)CO)C[C@H](C)[C@@H](CN(C)Cc1ccc(C(=O)O)cc1)O2	9
C[C@H]1CN([C@@H](C)CO)C(=O)c2cccc(NC(=O)C3CCOCC3)c2O[C@@H]1CN(C)Cc1ccc(Cl)c(Cl)c1	25
CS(=O)(=O)N(CC(=O)Nc1ccc(F)cc1F)c1ccc(Br)cc1	-4
Cc1ccc2nc(CCCC(=O)O)[nH]c2c1	38
Cc1ccc(S(=O)(=O)N(CC(=O)O)c2ccccc2C)cc1	5
CSc1ccccc1NC(=O)CN(C)S(=O)(=O)c1ccc(C)cc1	30

(listing goes on)
structure	NOMO-1 viab
C[C@H]1CN([C@@H](C)CO)C(=O)Cc2cc(NC(=O)Cn3cnnn3)ccc2O[C@H]1CN(C)Cc1ccc(-c2ccccc2)cc1	7
COc1ccc(-c2ccc(CCC(=O)O)n2-c2cc(Cl)ccc2O)cc1	15
C[C@@H]1CN([C@@H](C)CO)C(=O)c2cc(NC(=O)CCCCCC(=O)Nc3ccccc3N)ccc2O[C@H]1CN(C)C(=O)Nc1ccc2c(c1)OCO2	-13
C[C@@H]1CN([C@H](C)CO)C(=O)c2cccc(NS(=O)(=O)c3ccc(Cl)cc3)c2O[C@@H]1CN(C)Cc1ccc(C(=O)O)cc1	-16
COc1ccc(-c2noc(CC(=O)O)c2-c2ccc(OC)cc2)cc1	-7
CC(=O)Nc1ccc(NC(=O)C(NC(=O)c2ccco2)C(C)C)cc1 (stereo unspecified)	0
Cc1ccccc1Nc1nc(N)nc(CN2CCN(c3ccccn3)CC2)n1	2
C[C@H]1CN([C@@H](C)CO)C(=O)c2cc(NC(=O)C3CC3)ccc2O[C@@H]1CN(C)Cc1ccc(-c2ccccc2)cc1	20

Reprinted at random: two compounds from above, in no set order.
structure	NOMO-1 viab
COc1ccc(-c2ccc(CCC(=O)O)n2-c2cc(Cl)ccc2O)cc1	15
C[C@H]1CN([C@@H](C)CO)C(=O)Cc2cc(NC(=O)Cn3cnnn3)ccc2O[C@H]1CN(C)Cc1ccc(-c2ccccc2)cc1	7

New compounds follow.
structure	NOMO-1 viab
C[C@H]1CN([C@@H](C)CO)C(=O)Cc2cc(NS(=O)(=O)c3cccs3)ccc2O[C@H]1CN(C)Cc1ccc(C(F)(F)F)cc1	26
C[C@@H]1CN([C@H](C)CO)C(=O)c2cccc(NS(=O)(=O)c3ccc(Cl)cc3)c2O[C@@H]1CN(C)C(=O)Nc1ccc(C(F)(F)F)cc1	38
COc1ccc(NC(=O)Nc2cccc3c2O[C@H](CN(C)C(=O)Nc2ccc(OC)cc2)[C@H](C)CN([C@@H](C)CO)C3=O)cc1	18
Cc1noc(C)c1NC(=O)Nc1cccc2c1O[C@H](CN(C)C(=O)Nc1ccc(C(F)(F)F)cc1)[C@H](C)CN([C@@H](C)CO)C2=O	1
C[C@@H]1CN([C@H](C)CO)C(=O)c2cc(NC(=O)C3CCCCC3)ccc2O[C@H]1CN(C)S(=O)(=O)c1ccccc1	7
C[C@@H]1CN([C@@H](C)CO)C(=O)Cc2cc(NS(=O)(=O)c3cn(C)cn3)ccc2O[C@@H]1CN(C)S(=O)(=O)c1ccccc1	1
COc1cccc(NC(=O)CNC(=O)c2ccccc2)c1	34
C[C@@H]1CN([C@@H](C)CO)C(=O)Cc2cc(NC(=O)Cc3cn(C)c4ccccc34)ccc2O[C@@H]1CN(C)Cc1ccncc1	28

Given with each value named: four of the compounds above.
COc1cccc(NC(=O)CNC(=O)c2ccccc2)c1
  NOMO-1 viab = 34

C[C@@H]1CN([C@H](C)CO)C(=O)c2cc(NC(=O)C3CCCCC3)ccc2O[C@H]1CN(C)S(=O)(=O)c1ccccc1
  NOMO-1 viab = 7

C[C@@H]1CN([C@@H](C)CO)C(=O)Cc2cc(NS(=O)(=O)c3cn(C)cn3)ccc2O[C@@H]1CN(C)S(=O)(=O)c1ccccc1
  NOMO-1 viab = 1

Cc1noc(C)c1NC(=O)Nc1cccc2c1O[C@H](CN(C)C(=O)Nc1ccc(C(F)(F)F)cc1)[C@H](C)CN([C@@H](C)CO)C2=O
  NOMO-1 viab = 1

The results go on.
structure	NOMO-1 viab
O=S(=O)(N1CCOCC1)n1nnc2ccccc21	17
CCCn1c(NCc2cccc(OC)c2O)nc2ccccc21	23
COc1ccc(S(=O)(=O)N(C)C[C@@H]2Oc3ccc(NC(=O)Nc4ccc(C(F)(F)F)cc4)cc3C(=O)N([C@H](C)CO)C[C@H]2C)cc1	113*
C[C@@H]1CN([C@H](C)CO)C(=O)c2cc(NC(=O)C3CCCCC3)ccc2O[C@@H]1CN(C)Cc1ccc(C(=O)Nc2ccccc2N)cc1	?
COc1ccc(NC(=O)N(C)C[C@@H]2Oc3c(NS(=O)(=O)c4cccs4)cccc3C(=O)N([C@@H](C)CO)C[C@@H]2C)cc1	-6
C[C@H]1CN([C@@H](C)CO)C(=O)c2cccc(NC(=O)Nc3ccc(F)cc3)c2O[C@H]1CN(C)S(=O)(=O)c1ccc(Cl)cc1	100*
C[C@H]1CN([C@@H](C)CO)C(=O)c2cc(NS(=O)(=O)c3ccc(F)cc3)ccc2O[C@@H]1CN(C)Cc1ccc(C(=O)O)cc1	-2
COc1ccc(S(=O)(=O)Nc2ccc3c(c2)CC(=O)N([C@H](C)CO)C[C@H](C)[C@H](CN(C)C)O3)cc1	-4

Further results.
structure	NOMO-1 viab
C[C@H]1CN([C@@H](C)CO)C(=O)c2cc(NC(=O)CCCCCC(=O)Nc3ccccc3N)ccc2O[C@H]1CN(C)C(=O)Nc1ccc(F)cc1	?
C[C@@H]1CN([C@@H](C)CO)C(=O)c2cc(N(C)C)ccc2O[C@@H]1CN(C)C(=O)NC1CCCCC1	18
COc1ccc(CN(C)C[C@H]2Oc3c(NS(=O)(=O)c4ccc(OC)cc4)cccc3C(=O)N([C@H](C)CO)C[C@@H]2C)cc1	-7
C[C@@H]1CCCCO[C@@H](CN(C)CC2CCCCC2)[C@@H](C)CN([C@H](C)CO)C(=O)c2cc(NS(=O)(=O)c3cccs3)ccc2O1	25
O=C1N=C(c2cccc(O)c2)c2ccccc2Nc2ccccc21	31
C[C@@H]1CN([C@H](C)CO)C(=O)c2cccc(NC(=O)C3CCOCC3)c2O[C@@H]1CN(C)C(=O)Nc1ccc(F)cc1	-20
C[C@H](CO)N1C[C@H](C)[C@H](CN(C)S(=O)(=O)c2cn(C)cn2)Oc2ccc(NC(=O)CCC(F)(F)F)cc2C1=O	6
COc1ccc(Br)cc1CN1CCN(Cc2c[nH]c3ccccc23)CC1	28

Additional compounds.
structure	NOMO-1 viab
C[C@H]1CN([C@@H](C)CO)C(=O)c2cc(NC(=O)Nc3ccc(C(F)(F)F)cc3)ccc2O[C@H]1CN(C)C(=O)Nc1ccc(C(F)(F)F)cc1	120*
Cc1ccc(S(=O)(=O)Nc2ccc3c(c2)C(=O)N([C@H](C)CO)C[C@H](C)[C@H](CN(C)Cc2ccc4c(c2)OCO4)OCCCC[C@@H](C)O3)cc1	34
Cc1noc(C)c1S(=O)(=O)Nc1ccc2c(c1)C(=O)N([C@@H](C)CO)C[C@H](C)[C@H](CN(C)C(=O)Nc1cccc3ccccc13)O2	2
C[C@H](CO)N1C[C@H](C)[C@H](CN(C)Cc2ccc(Cl)c(Cl)c2)Oc2ccc(NC(=O)Nc3ccc(F)cc3)cc2CC1=O	75
Cc1noc(C)c1NC(=O)Nc1ccc2c(c1)C(=O)N([C@@H](C)CO)C[C@H](C)[C@@H](CN(C)S(=O)(=O)c1ccc(F)cc1)O2	-7
CCCc1[nH]c(Br)nc1-c1ccccc1	13
Cc1noc(C)c1S(=O)(=O)N(C)C[C@H]1Oc2ccc(NC(=O)Nc3ccc(F)cc3)cc2CC(=O)N([C@@H](C)CO)C[C@H]1C	6
Cc1sc2ncn(CC(=O)NCc3ccco3)c(=O)c2c1-c1ccccc1	2

Remaining list, next part:
structure	NOMO-1 viab
CC1(C)Cc2ccccc2C(Nc2nc(-c3ccccc3)cs2)=N1	21
C[C@H](CO)N1C[C@H](C)[C@H](CN(C)C(=O)Nc2cccc3ccccc23)Oc2c(NC(=O)C3CCCCC3)cccc2C1=O	4
C[C@H]1CN([C@@H](C)CO)C(=O)c2cc(NC(=O)Cc3ccccc3)ccc2O[C@@H]1CN(C)C(=O)Nc1ccc(F)cc1	7
C[C@H](CO)N1C[C@H](C)[C@@H](CN(C)S(=O)(=O)c2ccc(Cl)cc2)Oc2c(NS(=O)(=O)c3cccs3)cccc2C1=O	4
COc1ccc2c(c1)C(C)CC(C)(C)N2C(=O)CSc1nc2ccccc2[nH]1 (stereo unspecified)	18
COc1ccc(NC(=O)CSc2nc3ccccc3c(=O)[nH]2)cc1Cl	25
COc1ccc(NC(=O)Nc2cccc3c2O[C@H](CN(C)C(=O)Nc2ccc(OC)cc2)[C@@H](C)CN([C@@H](C)CO)C3=O)cc1	-3
Cc1cccc(N=Cc2c(Nc3cccc(C)c3)nc3ccccn3c2=O)c1	27

More entries follow:
structure	NOMO-1 viab
CNC[C@H]1Oc2c(cccc2N(C)C)C(=O)N([C@H](C)CO)C[C@@H]1C	-11
CNC[C@@H]1Oc2ccc(NC(=O)Nc3ccc4c(c3)OCO4)cc2CC(=O)N([C@H](C)CO)C[C@@H]1C	2
C[C@@H]1CN([C@@H](C)CO)C(=O)c2cccc(NC(=O)c3nc4ccccc4s3)c2O[C@@H]1CN(C)Cc1ccc(C(=O)O)cc1	15
Cc1[nH]c2ccccc2c1C(=O)CSc1ncnc2sc(C)c(C)c12	9
CCOC(=O)COc1ccc(-c2nc3c([nH]2)c(=O)n(C)c(=O)n3C)cc1OC	149*
CNC[C@H]1Oc2ccc(NS(=O)(=O)c3ccc(C)cc3)cc2CC(=O)N([C@H](C)CO)C[C@H]1C	22
CC1(C)Cc2c(c(N3CCOCC3)nc3sc4c(=O)[nH]nnc4c23)CO1	4
COc1ccc(S(=O)(=O)N(C)C[C@H]2Oc3c(NC(=O)c4cnccn4)cccc3C(=O)N([C@@H](C)CO)C[C@H]2C)cc1	34

Carrying on.
structure	NOMO-1 viab
Cc1noc(C)c1S(=O)(=O)Nc1ccc2c(c1)C(=O)N([C@H](C)CO)C[C@H](C)[C@@H](CN(C)Cc1ccc3c(c1)OCO3)OCCCC[C@@H](C)O2	30
C[C@H]1CN([C@@H](C)CO)C(=O)c2cccc(NC(=O)c3ccncc3)c2O[C@H]1CN(C)S(=O)(=O)c1ccc(F)cc1	11
COc1ccc(CN(C)C[C@H]2Oc3ccc(NS(=O)(=O)c4c(C)noc4C)cc3CC(=O)N([C@@H](C)CO)C[C@@H]2C)cc1	24
CC(C)Nc1nc(SCC(N)=O)nc(N2CCOCC2)n1	-10
C[C@H](CO)N1C[C@H](C)[C@H](CN(C)S(=O)(=O)c2cn(C)cn2)Oc2ccc(NS(=O)(=O)c3ccc(Cl)cc3)cc2CC1=O	15
COc1ccc(NC(=O)N(C)C[C@@H]2OCCCC[C@@H](C)Oc3ccc(NC(=O)CCC(F)(F)F)cc3C(=O)N([C@H](C)CO)C[C@@H]2C)cc1	-8
COC(=O)/C=C/S(=O)(=O)c1ccc(NC(C)=O)cc1	126*
C[C@H](CO)N1C[C@H](C)[C@H](CN(C)C(=O)NC2CCCCC2)Oc2ccc(N(C)C)cc2CC1=O	-3

Continued:
structure	NOMO-1 viab
Cn1nnnc1SCC(=O)Nc1ccc2c(c1)OCCO2	-9
O=C(Nc1ccccc1)Nc1ccccc1SCCS(=O)(=O)c1ccc(Cl)cc1	63
C[C@H](CO)N1C[C@H](C)[C@H](CN(C)Cc2ccc(Oc3ccccc3)cc2)Oc2ccc(NC(=O)Cc3ccccc3)cc2C1=O	69
O=C(CSc1ncnc2sc3c(c12)CCC3)N1CCOCC1	-10
CC(C)c1ccccc1NC(=O)CSc1nnnn1-c1ccccc1	4
COc1ccc(S(=O)(=O)N(C)C[C@@H]2Oc3c(NC(=O)NC(C)C)cccc3C(=O)N([C@H](C)CO)C[C@H]2C)cc1	-4
CCOc1ccc2ccccc2c1C(=O)NCc1ccco1	1
CCOC(=O)c1c[nH]c2c(C)c(Cl)ccc2c1=O	18

Carrying on:
structure	NOMO-1 viab
COc1ccc(NC(=O)CSc2nc(C)cc(C)n2)cc1	-9
O=C(CSc1ncn(-c2ccccc2)n1)Nc1ccc(F)c(Cl)c1	30
c1ccc(-c2nn3c(Cn4cnc5ccccc54)nnc3s2)nc1	15
CC(C)NC(=O)Nc1ccc2c(c1)C(=O)N([C@H](C)CO)C[C@H](C)[C@H](CN(C)Cc1ccc(C(=O)O)cc1)OCCCC[C@@H](C)O2	4
C[C@@H]1CN([C@@H](C)CO)C(=O)c2cc(NC(=O)c3ccncc3)ccc2O[C@H]1CN(C)S(=O)(=O)c1ccc(F)cc1	-12
C[C@@H]1CN([C@H](C)CO)C(=O)c2cccc(NC(=O)CCCCCC(=O)Nc3ccccc3N)c2O[C@H]1CN(C)Cc1ccc2c(c1)OCO2	122*
C[C@@H]1CN([C@@H](C)CO)C(=O)c2cc(NS(=O)(=O)c3cn(C)cn3)ccc2O[C@@H]1CN(C)C(=O)Nc1ccc(F)cc1	-3
C[C@@H]1CN([C@@H](C)CO)C(=O)Cc2cc(NC(=O)C3CC3)ccc2O[C@@H]1CN(C)CC1CC1	8

(further entries)
structure	NOMO-1 viab
C[C@H](CO)N1C[C@H](C)[C@@H](CN(C)Cc2ccc(C(=O)O)cc2)Oc2c(NS(=O)(=O)c3ccc(Cl)cc3)cccc2C1=O	-10
CS(=O)(=O)N(CC(=O)Nc1ccccc1)c1ccc(F)c(Cl)c1	37
COc1ccc(NC(=O)Nc2ccc3c(c2)C(=O)N([C@H](C)CO)C[C@H](C)[C@H](CN(C)C)OCCCC[C@@H](C)O3)cc1	18
Cc1ccc(S(=O)(=O)N(C)C[C@H]2Oc3ccc(N(C)C)cc3C(=O)N([C@H](C)CO)C[C@H]2C)cc1	12
